TRPML1 agonist: human mucolipin-1 channel agonism. Q9GZU1. 410,000 compounds, 0.12% hits. AID 624414. activation, % (test concentration not listed). TRPML1-expressing cells, Ca2+ dye fluorescence, FDSS; host cell line not named in the record; reference of the full effect not given here; in the data active = activation above about 50%; inconclusive = about 30% to 50%; inactive = below about 30%; also: 0% is about no effect; the text of the record puts the active cut at 80%
Target sequence (Q9GZU1 whole entry, looked up): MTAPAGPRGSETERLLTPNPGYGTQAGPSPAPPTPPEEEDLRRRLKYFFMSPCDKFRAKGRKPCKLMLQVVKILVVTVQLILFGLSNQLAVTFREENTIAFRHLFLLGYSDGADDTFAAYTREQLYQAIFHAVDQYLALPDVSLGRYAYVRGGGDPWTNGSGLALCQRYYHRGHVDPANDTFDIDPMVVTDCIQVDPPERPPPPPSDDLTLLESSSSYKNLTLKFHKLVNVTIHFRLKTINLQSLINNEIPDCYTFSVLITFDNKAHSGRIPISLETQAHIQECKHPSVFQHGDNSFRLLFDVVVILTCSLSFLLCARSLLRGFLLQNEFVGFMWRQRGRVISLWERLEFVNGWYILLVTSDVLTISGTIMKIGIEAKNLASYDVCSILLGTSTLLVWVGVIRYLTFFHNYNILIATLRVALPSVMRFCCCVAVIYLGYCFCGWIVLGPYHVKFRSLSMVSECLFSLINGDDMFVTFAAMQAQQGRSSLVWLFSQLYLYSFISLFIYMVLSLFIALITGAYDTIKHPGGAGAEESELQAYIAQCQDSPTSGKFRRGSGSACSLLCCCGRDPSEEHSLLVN
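In this qHTS format, compounds were pin-transferred onto Ca8-dye-loaded TRPML1-DL cells induced with Tet overnight, and intracellular Ca2+ fluorescence was recorded kinetically for 110 s after a 10 s baseline. A subsequent 4uM final 54-4 (EC80) addition followed by a second 110 s read served as the antagonist phase.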
D2 ag: agonists of human D2 dopamine receptor (beta-arrestin); P14416; DiscoveRx PathHunter D2 beta-arrestin, luminescence, 90 min; 100% = 57 uM dopamine signal; activation, % (concentration not given with the values); 360,000 compounds, 0.084% hits; in the data active = activation above about 40%; inconclusive = about 15% to 40%; inactive = below about 15%; also: the text of the record calls up to 30% inactive
Target sequence (P14416 whole entry, looked up): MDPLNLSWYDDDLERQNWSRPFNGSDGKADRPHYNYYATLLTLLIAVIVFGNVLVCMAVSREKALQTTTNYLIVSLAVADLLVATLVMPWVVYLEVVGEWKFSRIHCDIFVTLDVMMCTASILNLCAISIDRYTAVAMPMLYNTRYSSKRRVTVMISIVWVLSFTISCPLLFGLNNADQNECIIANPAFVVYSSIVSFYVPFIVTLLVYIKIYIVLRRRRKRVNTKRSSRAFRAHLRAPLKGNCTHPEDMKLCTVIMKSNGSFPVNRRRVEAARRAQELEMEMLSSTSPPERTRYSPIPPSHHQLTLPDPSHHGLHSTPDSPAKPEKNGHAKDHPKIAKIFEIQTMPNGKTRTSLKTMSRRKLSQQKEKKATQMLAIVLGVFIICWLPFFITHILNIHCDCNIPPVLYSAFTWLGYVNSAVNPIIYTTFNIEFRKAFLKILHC
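Agonist mode: compounds alone added to overnight-plated D2 PathHunter cells for 90 min at 37 C, with 57 uM final dopamine (EC100) defining full response. Beta-arrestin recruitment detected by chemiluminescent reagent, read after 1 h at ambient temperature.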
Six1-Eya2 blk: Six1/Eya2 interaction inhibition | 360,000 compounds, 0.56% hits | Q15475+O00167 | activity change, % (concentration not given with the values) | AlphaScreen GST-Six1/His-Eya2 binding, biochemical; stronger effect = lower value; control for the full effect not named in the record; in the data active = activity change below about -65%; inconclusive = about -30% to -65%; inactive = above about -30%; also: % is scaled to controls: 0 for no effect and ±100 for the full control effect
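Compounds are tested against tagged Six1 and Eya2 proteins bridged by glutathione donor and nickel acceptor beads; after a one-hour incubation at 37 °C without light, AlphaScreen emission is recorded.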
CtBP-E1A blk: blocks the CtBP interaction with E1A; AlphaScreen GST-E1A/His-CtBP binding, 1536-well; stronger effect = lower value; control for the full effect not named in the record; activity change, % (no concentration beside the values); 340,000 compounds, 0.49% hits; AID 651724; in the data active means activity change below about -65%; inconclusive means about -30% to -65%; inactive means above about -30%; also: % is scaled to controls: 0 for no effect and ±100 for the full control effect
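Protein mix (5X: 125 nM each GST-E1A, His-CtBP) was incubated with pinned compound 2 h at 37 deg C in dark, in 50 mM Tris pH 8.0 buffer with 300 mM NaCl. Glutathione donor and nickel acceptor beads followed; AlphaScreen signal read after 1 h.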
D2 PAM: positive allosteric modulators of human D2 dopamine receptor; P14416; DiscoveRx D2 beta-arrestin cells, luminescence, 90 min; 100% = 57 uM dopamine signal; potentiation, % (concentration not given with the values); 360,000 compounds, 0.23% hits; active = potentiation of 50% or more; inconclusive = 30% to 50%; inactive = 30% or less;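 also: tested on top of an EC20 dose of dopamine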
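D2 cells co-treated with compound plus 50 nM dopamine (EC20) for 90 min at 37 deg C to detect potentiation. Beta-arrestin recruitment was read as enzyme-fragment luminescence after 1 h at ambient temperature. Full response was set by 57 uM dopamine.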
PINK1 modulator: modulators of PINK1 expression | PINK1 immunofluorescence, high-content cytometry, 24 h | Potency, µM (top dose mostly 76.6 µM), for the others: top-dose activation (PINK1 increase), most hits filed as activators | 410,000 compounds, 0.2% hits | AID 624263; active = well fitted activation curve with a large enough effect; inconclusive = small, poorly fitted or top-dose-only effect; inactive = flat fitted curve, though single readings scatter; cell line not stated here;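 also: potency is read from the fitted curve at half-maximal effect; % of control where 0% means no effect; nearly all actives have a fitted effect of over 65% in size; a mitochondrial uncoupler was the plate control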
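Compound titrations (5 concentrations, 24 h) on a stable cell line; DMSO and CCCP controls. Endpoint: fixed-cell PINK1 immunofluorescence with mitochondrial, cell and nuclear markers, scanned by microplate cytometer.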
* = called active by the depositor; [ ] = remark or other dose. An unsorted share of the library; any-hit rate near 1.3%.

What do the screens show for `CC(=O)N(c1ccc(C(F)(F)F)cc1)S(=O)(=O)c1ccc(N2C(=O)CCC2=O)cc1`?
TRPML1 agonist: -0.8; D2 ag: -2.3; Six1-Eya2 blk: 6.5; CtBP-E1A blk: 7.2; D2 PAM: 9.7; PINK1 modulator: 0.5%

What do the screens show for `CCCc1ccc(C(=O)COC(=O)CN2C(=O)NC3(CCCCC3C)C2=O)cc1` (stereo unspecified)?
TRPML1 agonist: 4.6; D2 ag: -1.8; Six1-Eya2 blk: -0.7; CtBP-E1A blk: -2.8; D2 PAM: -1.3; PINK1 modulator: 0.5%

What do the screens show for `COc1ccc(CCNC(=O)CN(c2ccc(OC)c(OC)c2)S(C)(=O)=O)cc1OC`?
TRPML1 agonist: -0.5; D2 ag: -0.7; Six1-Eya2 blk: 0.8; CtBP-E1A blk: 2.2; D2 PAM: -8.8; PINK1 modulator: 1.2%

What do the screens show for `CC(=O)c1cccc(OCC(=O)Nc2ccccc2N2CCOCC2)c1`?
TRPML1 agonist: 0.5; D2 ag: -0.8; Six1-Eya2 blk: 4.2; CtBP-E1A blk: 11.3; D2 PAM: 3.9; PINK1 modulator: -0.5%

How did COc1cccc(/C=C/c2ccc3cccc(O)c3n2)c1 do in these assays?
TRPML1 agonist: 1.3; D2 ag: -5.0; Six1-Eya2 blk: 15.7; CtBP-E1A blk: 0.0; D2 PAM: -14.2; PINK1 modulator: 3.5%

How did CCc1nnc(NC(=O)c2ccc(COc3ccccc3C)o2)s1 do in these assays?
TRPML1 agonist: 0.5; D2 ag: -2.3; Six1-Eya2 blk: 11.4; CtBP-E1A blk: 2.1; D2 PAM: 3.2; PINK1 modulator: 3.8%

How did O=C1C2CC=C(Cl)CC2C(=O)N1CCCCCCN1C(=O)C2CC=C(Cl)CC2C1=O (stereo unspecified) do in these assays?
TRPML1 agonist: 6.1; D2 ag: -0.1; Six1-Eya2 blk: -4.7; CtBP-E1A blk: 2.6; D2 PAM: -12.3; PINK1 modulator: 1.2%[38.3 µM]

Results for COc1ccc(OC)c(C(=O)Cn2nnc3ccccc3c2=O)c1 ?
TRPML1 agonist: 0.0; D2 ag: -3.4; Six1-Eya2 blk: 5.1; CtBP-E1A blk: 5.3; D2 PAM: -3.8; PINK1 modulator: -0.4%[38.3 µM]

Results for Cc1ccc(C(=O)NCC(=O)OCC(=O)c2c(N)n(C)c(=O)n(C)c2=O)s1 ?
TRPML1 agonist: -0.3; D2 ag: -3.2; Six1-Eya2 blk: -21.9; CtBP-E1A blk: -5.5; D2 PAM: -7.6; PINK1 modulator: 0.6%

What do the screens show for `O=C(N/N=C/c1cccnc1)C12CC3CC(CC(C3)C1)C2`?
TRPML1 agonist: -0.2; D2 ag: -1.2; Six1-Eya2 blk: 2.0; CtBP-E1A blk: 1.9; D2 PAM: -9.8; PINK1 modulator: 0.0%

How did COc1ccc(OC)c(S(=O)(=O)NCc2ccccn2)c1 do in these assays?
D2 ag: 0.1; Six1-Eya2 blk: 7.0; D2 PAM: 0.7; PINK1 modulator: 3.8%

How did CC(C)=CCCC(C)=CCN1C(=O)CN(C)C1=O do in these assays?
TRPML1 agonist: -0.5; D2 ag: -1.1; Six1-Eya2 blk: 1.2; CtBP-E1A blk: 3.1; D2 PAM: -2.7; PINK1 modulator: 1.3%

Brought forward from above: 2 entries, followed by the next part.
How did COc1ccc(OC)c(S(=O)(=O)NCc2ccccn2)c1 do in these assays?
D2 ag: 0.1; Six1-Eya2 blk: 7.0; D2 PAM: 0.7; PINK1 modulator: 3.8%

How did CC(C)=CCCC(C)=CCN1C(=O)CN(C)C1=O do in these assays?
TRPML1 agonist: -0.5; D2 ag: -1.1; Six1-Eya2 blk: 1.2; CtBP-E1A blk: 3.1; D2 PAM: -2.7; PINK1 modulator: 1.3%

What do the screens show for `COc1ccccc1Cc1c(-c2ccc(F)cc2)nc2ccc(Cl)cn12`?
TRPML1 agonist: 0.6; D2 ag: -3.4; Six1-Eya2 blk: 1.2; CtBP-E1A blk: 5.5; D2 PAM: -6.4; PINK1 modulator: 11.0%

How did COC(=O)c1c(N)[nH]c(C(=O)c2ccccc2)c1-c1ccc(Br)cc1 do in these assays?
TRPML1 agonist: 0.8; Six1-Eya2 blk: -7.0; CtBP-E1A blk: 5.2; PINK1 modulator: 7.0%

How did COc1ccc2cc(C(=O)O)n(CC(=O)c3ccccc3)c2c1 do in these assays?
TRPML1 agonist: -0.6; D2 ag: -3.5; Six1-Eya2 blk: 2.2; CtBP-E1A blk: 4.6; D2 PAM: -1.2; PINK1 modulator: 1.8%

What do the screens show for `O=C(CSc1nc2ccc(Cl)cc2[nH]1)NCc1ccco1`?
TRPML1 agonist: 0.5; D2 ag: 2.1; Six1-Eya2 blk: 3.0; CtBP-E1A blk: -18.0; D2 PAM: -10.8; PINK1 modulator: -1.0%

Results for Cc1ccc(S(=O)(=O)CC(=O)N2CCCC2)cc1 ?
TRPML1 agonist: 0.4; D2 ag: 3.5; Six1-Eya2 blk: 13.9; CtBP-E1A blk: 6.9; D2 PAM: -9.6; PINK1 modulator: -1.5%

Results for CCCN(CCC)CC(O)COc1ccc2c(c1)OCO2 (stereo unspecified) ?
TRPML1 agonist: 1.2; D2 ag: -0.2; Six1-Eya2 blk: -5.2; CtBP-E1A blk: 6.3; D2 PAM: -6.8; PINK1 modulator: 2.3%

Results for Cc1cccc(/N=C/c2c(O)n(Cc3ccc4c(c3)OCO4)c(=O)c3ccccc23)n1 ?
TRPML1 agonist: -0.4; D2 ag: -0.5; Six1-Eya2 blk: 2.1; CtBP-E1A blk: 4.1; D2 PAM: -7.7; PINK1 modulator: 0.9%

Results for COc1cccc(C(=O)NC(C)CCc2ccccc2)c1 (stereo unspecified) ?
TRPML1 agonist: 0.2; D2 ag: -1.2; Six1-Eya2 blk: -1.4; CtBP-E1A blk: 12.9; D2 PAM: -4.1; PINK1 modulator: 2.1%

What do the screens show for `Cc1ccc(N(C(=O)c2csnn2)C(C(=O)NC2CCCC2)c2cccnc2)c(C)c1` (stereo unspecified)?
TRPML1 agonist: -0.3; D2 ag: -3.0; Six1-Eya2 blk: 2.0; CtBP-E1A blk: 0.0; D2 PAM: -1.8; PINK1 modulator: -2.0%

Results for O=C(NCC(=O)N(CCN1CCOCC1)C(C(=O)NC1CCCC1)c1cccnc1)c1cccs1 (stereo unspecified) ?
TRPML1 agonist: 0.1; D2 ag: 0.6; Six1-Eya2 blk: 4.8; CtBP-E1A blk: 2.1; D2 PAM: -5.0; PINK1 modulator: 0.4%

What do the screens show for `O=C(CSc1nnc(SCc2ccc(Cl)cc2)s1)N1CCOCC1`?
TRPML1 agonist: 0.6; D2 ag: 0.1; Six1-Eya2 blk: 2.4; CtBP-E1A blk: 5.8; D2 PAM: 12.5; PINK1 modulator: -1.8%

Results for Cc1ccccc1-c1nnc(SCC(=O)c2c(N)n(C3CC3)c(=O)[nH]c2=O)o1 ?
TRPML1 agonist: 0.3; D2 ag: -4.7; Six1-Eya2 blk: -3.1; D2 PAM: -1.2; PINK1 modulator: 13.5%

Results for CCOC(=O)c1csc(-c2sccc2Br)n1 ?
TRPML1 agonist: -0.4; D2 ag: -4.1; Six1-Eya2 blk: -1.4; D2 PAM: -16.9; PINK1 modulator: 2.0%

How did CCCCN(CC)Cc1ccc(CNC(=S)Nc2ccc(C)cc2Cl)o1 do in these assays?
TRPML1 agonist: 0.3; D2 ag: -3.9; Six1-Eya2 blk: -1.1; CtBP-E1A blk: -6.8; D2 PAM: -12.4; PINK1 modulator: 0.1%

How did COC(=O)C(N)Cc1ccc(O)c(O)c1 (stereo unspecified) do in these assays?
TRPML1 agonist: 1.1; D2 ag: 8.4; Six1-Eya2 blk: 3.1; CtBP-E1A blk: -3.0; D2 PAM: 25.9; PINK1 modulator: 3.6%

What do the screens show for `COc1ccccc1CNC(=O)C1CC2Cn3c(nc4ccccc43)C2N1C` (stereo unspecified)?
TRPML1 agonist: 0.6; D2 ag: -2.5; Six1-Eya2 blk: -5.2; CtBP-E1A blk: -9.7; D2 PAM: -11.0; PINK1 modulator: 0.6%

Results for CCc1nnc(NC(=O)CSc2nc(C)cs2)s1 ?
TRPML1 agonist: 0.1; D2 ag: -2.9; Six1-Eya2 blk: 64.8; CtBP-E1A blk: 6.0; D2 PAM: -8.7; PINK1 modulator: -2.9%

Results for NC1=NC(=O)C2(COC(c3cccnc3)OC2)S1 (stereo unspecified) ?
TRPML1 agonist: 3.0; D2 ag: 2.3; Six1-Eya2 blk: 3.5; CtBP-E1A blk: 6.9; D2 PAM: -17.0; PINK1 modulator: -1.2%

How did CCn1cc(C(=O)OC)c(=O)c2ccc(C)nc21 do in these assays?
TRPML1 agonist: -0.6; D2 ag: -1.1; Six1-Eya2 blk: -2.2; CtBP-E1A blk: -4.2; D2 PAM: -0.5; PINK1 modulator: -1.9%

Results for O=C(Cn1cc([N+](=O)[O-])ccc1=O)NCC(=O)Nc1ccc(F)c(F)c1F ?
TRPML1 agonist: -0.4; D2 ag: -7.5; Six1-Eya2 blk: -17.3; CtBP-E1A blk: -2.0; D2 PAM: -0.1; PINK1 modulator: 1.4%

Results for Fc1ccc(CSc2ccc(-c3cccs3)nn2)cc1 ?
TRPML1 agonist: 1.3; D2 ag: -0.3; Six1-Eya2 blk: -2.8; CtBP-E1A blk: -2.1; D2 PAM: -8.7; PINK1 modulator: inconclusive

What do the screens show for `CCS(=O)(=O)c1ccc(O)c(NC(=O)/C=C/c2ccccc2)c1`?
TRPML1 agonist: -0.2; D2 ag: -4.7; Six1-Eya2 blk: -1.3; CtBP-E1A blk: -5.7; D2 PAM: -14.1; PINK1 modulator: 2.1%

Results for CCOc1ccc(/C=N/NC(=O)C2CC2)c(OCC)c1 ?
TRPML1 agonist: 0.0; D2 ag: -3.4; Six1-Eya2 blk: -0.3; CtBP-E1A blk: 1.7; D2 PAM: 12.8; PINK1 modulator: 7.8%

What do the screens show for `CS(=O)(=O)N1CCN(c2ccccc2NC(=O)Cc2ccc(Cl)cc2)CC1`?
TRPML1 agonist: 0.0; D2 ag: -0.7; Six1-Eya2 blk: 0.5; CtBP-E1A blk: 1.4; D2 PAM: -1.4; PINK1 modulator: -1.6%

What do the screens show for `CC(C)(C)c1ccc(CC(=O)N2CCC2(C)C(=O)NS(=O)(=O)Cc2ccccc2)cc1` (stereo unspecified)?
TRPML1 agonist: -0.4; D2 ag: -5.0; Six1-Eya2 blk: 5.8; CtBP-E1A blk: 8.1; D2 PAM: -1.2; PINK1 modulator: 2.4%

What do the screens show for `O=C(Nc1ccsc1C(=O)O)c1cccc(Oc2ccccc2)c1`?
TRPML1 agonist: 2.1; D2 ag: 2.5; Six1-Eya2 blk: -13.1; CtBP-E1A blk: -7.2; D2 PAM: 6.8; PINK1 modulator: -1.2%

What do the screens show for `COc1ccc(Cc2nnc(SCc3c(C)noc3C)n2C2CCCCC2)cc1OC`?
TRPML1 agonist: 1.7; D2 ag: -2.4; Six1-Eya2 blk: -6.8; CtBP-E1A blk: -3.0; D2 PAM: -3.6; PINK1 modulator: 0.8%

Screens deposited in PubChem BioAssay by National Center for Advancing Translational Sciences (NCATS).
